Screening data deposited in PubChem by ICCB-Longwood Screening Facility, Harvard Medical School.
AID504770: E. coli YBA685 growth inhibition, screen for V. cholerae RctB inhibitors. E. coli YBA685 rctB-dependent plasmid, OD600 growth, 3 h; stronger effect = lower value. z-score (no concentration beside the values). hit rate 0.27% among 130,000. AID 504770;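 active = z-score under -2 on both plates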;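 also: wells of about 30 µL received 100 nL stock; score is relative to mean and SD of the test wells; the first replicate is given; strong numbers were not always called active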
CapD inh: CapD enzyme inhibition. hit rate 0.23% among 140,000. z-score (no concentration beside the values). purified CapD enzyme, fluorescence intensity read-out; stronger effect = lower value; some hits fall short of the stated cut;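 active = z-score under -4 in either of two replicates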;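 also: stock transfer was 100 nL into about 40 µL; score is relative to mean and spread of the plate; one replicate is shown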
The depositor's hits bear a star; / = no result given.

| SMILES | AID504770 | CapD inh |
| --- | --- | --- |
| O=c1[nH]c2c(s1)C=Nc1cc3ccccc3cc1N2 | 0.65 | 1.09 |
| O=C(c1cccs1)N1N=C(c2ccccc2)CC1c1ccc(Cl)cc1 (stereo not drawn) | / | 0.31 |
| O=C(CSCc1ccccc1)NC1CC2CCC1C2 (stereo not drawn) | -0.6 | 0.105 |
| COC(=O)c1cc(S(=O)(=O)N2CCCCC2)c[nH]1 | -0.65 | -0.87 |
| O=S(=O)(Nc1cccc2cccnc12)c1cc(Cl)c(Cl)cc1Cl | / | 0.465 |
| O=c1[nH]snc1N1CCCCC1 | -1.7 | 0.47 |
| CCn1cnc2cc(NCc3ccccn3)ccc21 | -1.15 | 7.48 |
| Cc1cc(C)nc(/N=C(/N)N2N=CCC2c2ccccc2)n1 (stereo not drawn) | 1.35 | -0.245 |
| Cc1cc(C)c(S(=O)(=O)Nc2cc3c4c(oc3c3ccccc23)CCCC4=O)c(C)c1 | / | -0.215 |
| Cc1[nH]c2ccccc2c1C(=O)COC(=O)Cn1c(=O)oc2ccccc21 | -0.2 | / |
| COc1ccc(Nc2ncnc3c2cnn3-c2ccc(Cl)cc2)cc1Cl | / | 0.9 |
| CN1CCC(OC(=O)c2cc3cc(Br)ccc3oc2=O)CC1 | 1.7 | -0.265 |
| c1ccc(Nc2nnc(CSc3nc4ccccc4s3)s2)cc1 | -0.65 | / |
| CSc1ncc2c(n1)-c1ccccc1N(C)S2(=O)=O | -0.9 | 14.9 |
| COc1cc(C(=O)NC(=S)NC(N)=O)cc(OC)c1OC | -0.95 | 1.1 |
| COCCN1C(c2ccccc2)=CC(=C2C(=O)N(C)C(=O)N(C)C2=O)C2=C1CCCC2 | 1.35 | / |
| CCOC(=O)C1=C(Nc2ccc(Cl)cc2)C(=O)N(C(C)(C)C)C1 | 0.4 | -0.235 |
| Clc1ccc(-c2ncc3ccccn23)c(Cl)c1 | -0.4 | 9.88 |
| N#CC(c1ccccc1)c1cn2cc(Cl)ccc2n1 (stereo not drawn) | 2.15 | 2.22 |
| O=C(Oc1ccc2c(c1)CCCC2)c1cccs1 | -0.5 | 0 |
| C(=N\n1cnnc1)/c1cccs1 | 2.25 | -1.13 |
| O=C(Nc1nc2ccccc2s1)C1CC(=O)N(c2ccccc2)C1 (stereo not drawn) | -0.8 | 0.055 |
| Cc1cc(Cl)ccc1OCC(=O)N/N=C/c1cc(F)cc(C(F)(F)F)c1 | / | -0.665 |
| CCCC1=C(C(=O)OCC)C2(C(=O)Nc3ccccc32)C(C(=O)OCCOC)=C(N)O1 (stereo not drawn) | / | 0.22 |
| COC(=O)C1=C(C)NC(C)=C(C(=O)OC)C1c1ccc(-c2ccsc2C(=O)OC)o1 | / | 2.89 |
| CCOc1ccc(N(C)C(=O)[C@H]2[C@@H]3C[C@@H]4[C@H]2C(=O)O[C@@H]4C3)cc1 | 0.4 | 0.045 |
| COc1ccc(CCNC(=O)c2ccc(C3SCC(=O)N3Cc3ccccc3)cc2)cc1OC (stereo not drawn) | -0.4 | 0.145 |
| CCn1cnc2c(=O)oc3ccc(S(=O)(=O)NCc4ccccc4)cc3c21 | 1.6 | -0.79 |
| O=C(Cn1c(SCc2cccc(F)c2)nc2ccncc21)NCc1ccco1 | -0.5 | 0.29 |
| O=C(CCCc1ccccc1)NCCc1cn2ccccc2n1 | -1.05 | 0.475 |
| S=C(Nc1ccc(Cl)cc1)Nc1ccc(Cl)cc1 | / | -0.205 |
| Clc1ccc(CN2COc3ccc(Cl)cc3C2)cc1 | -1.1 | 0.315 |
| CS(=O)(=O)N1CCC(C(=O)N2CCN(C/C=C/c3ccccc3)CC2)CC1 | 0.35 | / |
| O=C(NC1CCCc2ccccc21)C1c2ccccc2Oc2ccccc21 (stereo not drawn) | 0.15 | -0.17 |
| Cc1ccc(Sc2cc(Sc3ccc(C)cc3)c3noc4c3c2C(=O)c2ccccc2-4)cc1 | / | 0.41 |
| CCOc1ccccc1NC(=O)CSc1ccc(-c2cccs2)nn1 | -0.05 | -0.755 |
| CCN(C(=O)c1cc2cc(Br)cc(OC)c2oc1=O)C1CCCCC1 | 0.05 | -0.26 |
| COc1ccc(-c2noc(CC(=O)N(C)Cc3ccccc3)n2)cc1 | -0.75 | 0.175 |
| O=C(Nc1cccc(NC(=O)C2CC3CCCC(C2)C3=O)n1)C1CC2CCCC(C1)C2=O (stereo not drawn) | -0.8 | 0.16 |
| c1ccc(CSCc2cn3ccccc3n2)cc1 | -0.85 | 2.77 |
| O=S(=O)(Nc1ccc(C(F)(F)F)cn1)c1ccccc1 | -0.55 | -0.7 |
| N#Cc1cccnc1SCCOC(=O)c1cccc(Cl)c1 | -0.7 | -1.15 |
| CCN(CC)S(=O)(=O)c1ccc2oc(C(=O)NCCc3ccc(OC)c(OC)c3)c(C)c2c1 | 0.4 | -0.155 |
| CCCCC(=O)N(Cc1ccc(-c2ccccc2-c2nn[nH]n2)cc1)[C@H](C(=O)O)C(C)C | -0.3 | / |
| COc1ccc(-c2noc(-c3cc4ccccc4oc3=Nc3ccc(NC(C)=O)cc3)n2)cc1 | 0.1 | -2.11 |
| CCc1nc2cccnc2n1-c1ccc(C(=O)N2CCCCC2)cc1 | 0.65 | 0.605 |
| Cc1ccc2nsnc2c1S(=O)(=O)N1CCN(C(c2ccccc2)c2ccccc2)CC1 | / | -0.31 |
| COC(=O)C1=COC(C)C2CN3CCc4c([nH]c5ccccc45)C3CC12 (stereo not drawn) | 0.15 | -0.585 |
| NC(=O)C1CCN(C(=O)c2c(F)cccc2Cl)CC1 | 0.3 | -0.14 |
| O=C(c1cnn(C(=O)CSc2nc3ccccc3o2)c1)c1ccccc1O | -0.4 | / |

(list continues)
| SMILES | AID504770 | CapD inh |
| --- | --- | --- |
| CC(Oc1ccccc1)C(=O)NCCc1ccc(S(N)(=O)=O)cc1 (stereo not drawn) | 0 | -0.225 |
| COC(=O)CCc1c(C)nn(-c2ccc(C(=O)NCCCN3CCCCC3C)cc2)c1C (stereo not drawn) | / | -0.55 |
| COc1ccc(NC(=O)c2snnc2C)cc1 | 0.8 | / |
| O=C(Nc1cc(Cl)cc(Cl)c1)Nc1cc(-c2ccccc2)[nH]n1 | -0.6 | 0.575 |
| O=c1[nH]c2cc3c(cc2cc1C(c1nnnn1C1CCCC1)N1CCc2ccccc21)OCCO3 (stereo not drawn) | -0.1 | / |
| O=C(NCc1ccccc1F)c1cc(=O)c2ccccc2o1 | -0.35 | / |
| COC(=O)c1ccc(CN(Cc2ccc(C(=O)OC)o2)C(C)(C)C)o1 | -0.05 | 9.85 |
| COc1cc(C2C(C(=O)OCC3CCCO3)=C(C)NC3=C2C(=O)CC(c2cccs2)C3)ccc1O (stereo not drawn) | / | 1.28 |
| CN(Cc1ccccc1)C(=O)c1cccs1 | -0.9 | 0.3 |
| N#Cc1ccc(C(F)(F)F)nc1SCc1cccc(C(F)(F)F)c1 | / | 0.455 |
| O=C(c1cccs1)c1no[n+]([O-])c1C(=O)c1cccs1 | -6.55* | -3.48 |
| CNC(=O)CS(=O)CC(=O)Nc1cc(OCCOC)c(Cl)cc1Cl (stereo not drawn) | / | 0.065 |
| O=C(O)c1cc(=O)[nH]c2ccc(S(=O)(=O)Nc3ccc(F)cc3)cc12 | -0.3 | / |
| COc1ccccc1NCC(F)(F)F | -0.6 | / |
| O=C(Nc1cccc(Cl)c1)OCc1cn(-c2ccc(Cl)c(Cl)c2)nn1 | / | -0.075 |
| CCOc1ccccc1NC(=O)c1ccc(F)c(S(=O)(=O)N2CCN(c3ccccc3OC)CC2)c1 | / | 0.84 |
| O=C(COc1ccccc1)N1N=C(c2ccc(Cl)cc2)CC1(O)C(F)(F)F (stereo not drawn) | / | -0.1 |
| CC(C)(C)C1=CC(=O)c2c(ccc(C(C)(C)C)c2O)C1=O | 1.5 | -0.23 |
| O=C(O)CNC(=O)c1ccc(N2C(=O)c3ccccc3C2=O)cc1 | -0.1 | -0.055 |
| NS(=O)(=O)c1ccc(NC(=O)C(Sc2ccccc2)c2ccccc2)cc1 (stereo not drawn) | 0.65 | -0.01 |
| COc1ccc(C2=NN(S(=O)(=O)c3ccccc3)C(c3ccccc3)C2)cc1OC (stereo not drawn) | / | -0.12 |
| COc1ccc(OCC(=O)OCc2c(F)cccc2Cl)cc1 | 0.25 | 0.125 |
| Cc1ccc(C(=O)NCC(=O)O)o1 | -0.05 | / |
| CCn1c(COc2ccccc2C(N)=O)nc2ccccc21 | -0.05 | -0.19 |
| CCOC(=O)C1C(c2ccccc2)NC(=S)NC1(O)C(F)(F)F (stereo not drawn) | -0.75 | 0 |
| Cc1ccc(S(=O)(=O)N/N=C/c2ccc(Cl)c(Cl)c2)cc1 | / | -0.04 |
| O=C(OCc1cn2cc(Cl)ccc2n1)c1cccc(-n2cnnn2)c1 | -0.35 | / |
| O=C(OC1CCCCC1)C1CCCN1S(=O)(=O)c1cccc2nsnc12 (stereo not drawn) | -0.1 | / |
| CCOc1ccc(CCNC(=O)C2CC(=O)OC2c2ccc(OC)c(OC)c2)cc1 (stereo not drawn) | 2.25 | 0.89 |
| O=C(O)/C=C\C(=O)NC1CCN(Cc2ccccc2)CC1 | -0.1 | 0.04 |

Shown with two lines to a compound: four of the compounds above
Every second line gives: AID504770	CapD inh
> Cc1ccc(C(=O)NCC(=O)O)o1
  -0.05	/
> CCn1c(COc2ccccc2C(N)=O)nc2ccccc21
  -0.05	-0.19
> CCOC(=O)C1C(c2ccccc2)NC(=S)NC1(O)C(F)(F)F (stereo not drawn)
  -0.75	0
> Cc1ccc(S(=O)(=O)N/N=C/c2ccc(Cl)c(Cl)c2)cc1
  /	-0.04

Continuation:
| SMILES | AID504770 | CapD inh |
| --- | --- | --- |
| COP1(=S)C2=C(N3CCOCC3)CC(C)(C)CC2=Nc2c1c(C)nn2-c1ccccc1 (stereo not drawn) | 0.7 | / |
| Cc1oc(-c2ccc(Cl)cc2)cc1C(=O)Nc1ccccc1 | 0.05 | 0.24 |
| O=C(NNC(=O)c1csc(-c2ccccc2)n1)OCCCCc1ccccc1 | / | -0.125 |
| CCCC(=O)Nc1nnc(SCC(=O)Nc2ccc(C)cc2C)s1 | -0.95 | 0.115 |
| O=C(c1ccc(-c2nc3ccccc3s2)s1)N1CCCCC1 | -0.8 | 0.41 |
| O=C(O)c1ccc2ncccc2c1 | -0.65 | 0.275 |
| CCOc1ccc2nc(NC(=O)c3ccccc3Cl)sc2c1 | -0.4 | 11.9 |
| C(=Nc1ccccc1)c1ccc2c(c1)OCO2 | 0.6 | 0.85 |
| N#CC(c1nc2ccccc2nc1N1CCCCC1)S(=O)(=O)c1cccs1 (stereo not drawn) | 0.85 | / |
| CCCC(=O)Nc1nncs1 | -0.55 | / |
| O=C(N1CCN=C1c1ccccc1)N1c2ccccc2Sc2ccccc21 | 0.2 | 0.04 |
| CCOC(=O)c1sc(/N=C/c2ccc(O)cc2O)cc1C | 0.1 | / |
| O=C(O)CC(NS(=O)(=O)c1cccc2nsnc12)c1ccco1 (stereo not drawn) | / | -0.745 |
| COc1ccc2sc(C)[n+](CCO)c2c1 | -0.75 | / |
| CNC(=O)c1ccccc1NC(=O)c1cccc(S(=O)(=O)N2CCC(C)CC2)c1 | -0.15 | 6.29 |
| CC1CCN(CCNC(=O)C2CCCN(S(=O)(=O)c3cccc4nsnc34)C2)CC1 (stereo not drawn) | -0.45 | 11.6 |
| Clc1ccc2c(c1)C(c1ccccc1Cl)=Nc1ccc(Cl)cc1C(c1ccccc1Cl)=N2 | / | -0.47 |
| CC(C)N(CCC#N)C(=O)Nc1ccc(F)cc1 | 0 | -0.055 |
| C#CCN1C(=O)S/C(=C\c2ccc(OCc3ccc(C(=O)O)o3)cc2)C1=O | -0.6 | / |
| Cc1nnc(SCc2ccc(C(=O)c3ccc(F)cc3)cc2)[nH]c1=O | 0.55 | 0.33 |

Retrieved by compound from the entries so far:
| SMILES | AID504770 | CapD inh |
| --- | --- | --- |
| COc1ccc2sc(C)[n+](CCO)c2c1 | -0.75 | / |
| O=C(O)CC(NS(=O)(=O)c1cccc2nsnc12)c1ccco1 (stereo not drawn) | / | -0.745 |
| Cc1nnc(SCc2ccc(C(=O)c3ccc(F)cc3)cc2)[nH]c1=O | 0.55 | 0.33 |
| CCOC(=O)c1sc(/N=C/c2ccc(O)cc2O)cc1C | 0.1 | / |

More records
| SMILES | AID504770 | CapD inh |
| --- | --- | --- |
| CC(C)C(OC(=O)c1ccc2c(c1)NC(=O)C(C)(C)O2)C(=O)NC1CCCC1 (stereo not drawn) | -0.05 | / |
| CC(C)(C)c1ccc(Oc2ncccc2NC(=O)c2ccccc2Cl)cc1 | / | 0.25 |
| CC(=O)N1CCCc2ccccc21 | / | -0.16 |
| CCOC(=O)C1=C(C)N=c2s/c(=C\c3ccc(OC)c(OC)c3)c(=O)n2C1c1ccc(OC)c(OC)c1 (stereo not drawn) | / | 0.185 |
| CC(C)n1cnc2cc(NCc3ccc(Cl)cc3)ccc21 | -1.7 | 22.7 |
| COc1cc(OC)cc(C(=O)Nc2ccc3oc(-c4ccc(OC)c(Cl)c4)nc3c2)c1 | / | 1.73 |
| O=C(/C=C/c1ccco1)NC(=S)Nc1ccccc1O | -0.2 | / |
| COc1ccc(-c2cc(C(=O)OCCN3CCOCC3)c3ccccc3n2)cc1 | 0.15 | / |
| Cc1cc(NCCC(C)C)n2c(nc3ccccc32)c1C#N | 0.4 | 21.2 |
| CCCSc1nnc(Cn2c(=O)sc3ccccc32)n1-c1ccccc1C | -0.4 | / |
| O=S(=O)(NCCNc1ncc(C(F)(F)F)cc1Cl)c1ccc(F)cc1 | / | 0.585 |
| CN1C(=O)C(=C2C=C(c3ccccc3)N(Cc3ccco3)C3=C2CCCC3)C(=O)N(C)C1=O | -0.05 | / |
| O=C(NCc1ccc2c(c1)OCO2)c1cccnc1SCc1ccccc1Cl | / | -0.12 |
| COc1cc(/C=C/C(=O)OCC(N)=O)ccc1OCC#N | -0.8 | / |
| O=C(c1nnsc1S(=O)c1ccc(Cl)cc1)N1CCOCC1 (stereo not drawn) | / | -0.37 |
| COc1ccc(N/C=C\C(=S)c2ccc(OC)cc2)cc1 | 0.15 | -1.21 |
